CBX7 inh = CBX7 inhibition, primary AlphaScreen | AlphaScreen His6-CBX7 / biotin-H3K27me3 peptide binding; stronger effect = lower value | normalised signal (fraction of DMSO) (test concentration not listed) | 66,000 tested, 1.1% active | AID 1224903; in the data active = normalised signal below about 0.5;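 also: 100 nL library stock added to about 20 µL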
Target sequence (O95931 whole entry, looked up): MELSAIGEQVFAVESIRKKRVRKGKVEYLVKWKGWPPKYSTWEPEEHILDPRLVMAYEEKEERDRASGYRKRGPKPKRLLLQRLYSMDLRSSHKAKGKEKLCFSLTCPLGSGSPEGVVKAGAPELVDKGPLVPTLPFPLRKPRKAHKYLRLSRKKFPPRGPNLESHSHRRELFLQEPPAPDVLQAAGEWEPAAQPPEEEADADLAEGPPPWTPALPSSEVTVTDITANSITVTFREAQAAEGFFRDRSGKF
CBX7 inh z-score = also measured in CBX7 inh; calls as there; z-score; measured here: z-score of CBX7 signal; some inactives read as strong as hits; reference of the scale not given here;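 same signal on another scale; lower means less binding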
* marks the source's active call; other numbers are inactive results; & = joins results of further samples. The list is partial, so the mix of outcomes need not match the whole.

Values run as follows: CBX7 inh	CBX7 inh z-score
- O=C(CN1C(=O)CSc2ccc(S(=O)(=O)N3CCCCC3)cc21)NC1CC1
→ 1.04	1.25
- CC1CCN(S(=O)(=O)c2ccc3c(c2)N(CC(=O)NCc2cccnc2)C(=O)CS3)CC1
→ 0.846	-1.83
- O=C1N(Cc2ccc3c(c2)OCO3)c2ccccc2C1(O)c1c[nH]c2ccccc12 (stereo not given)
→ 0.768	-6.23
- O=C1CCCc2c1[nH]c1ccc(F)cc21
→ 1.09	1.44
- CCOc1ccc(CCNC2CC(=O)N(c3ccc(OC)cc3)C2=O)cc1OCC (stereo not given)
→ 1.02	0.147
- Cc1ccc(OCC(=O)Nc2cccc(Cl)c2)cc1C
→ 1.12	5.13
- CC(C)COC(=O)Nc1nnc(Cc2ccc(F)cc2)s1
→ 1.04	1.07
- O=C(C1CC(c2ccc(F)cc2)=NO1)N1CCCC1 (stereo not given)
→ 1.03	1.31
- CCCN(CCC)CCCNC(=O)c1cn(CC(C)C)c(=O)c2cc(OC)c(OC)cc12
→ 1.18	2.03
- COc1ccc(C)cc1NC(=O)C1CCCN(S(=O)(=O)c2cccnc2)C1 (stereo not given)
→ 0.957	-1.43
- Cc1cc(NC(=O)COCc2cc(-c3ccc(F)cc3)on2)no1
→ 1.07	0.645
- O=c1c2ccccc2c(-c2cccs2)nn1CCc1ccccc1
→ 0.791	-1.99
- O=C(NC1CCCc2ccccc21)c1ccc2c(c1)N(Cc1ccc(Cl)cc1)C(=O)CS2 (stereo not given)
→ 1.06	2.26
- COc1ccc(C(=O)CSc2nc3nc(C)cc(C)c3c(=O)[nH]2)cc1C
→ 0.952	-1.2
- O=C(O)CCC(=O)Nc1ccc(-c2cnc3ccccc3n2)cc1
→ 0.827	-2.23
- CC1CCN(C(=O)Cn2nc(Cc3cccnc3)c3ccccc3c2=O)CC1
→ 1.12	1.82
- Cc1cccc(CC(=O)N2CC(=O)Nc3ccc(F)cc3C2c2ccc(F)cc2)c1 (stereo not given)
→ 0.999	-0.0278
- Cn1ccnc1SCC(=O)Nc1ccccc1F
→ 0.987	-0.0127
- CCc1ccc(NC(=O)CNC(=O)c2nn(-c3ccc(OC)c(Cl)c3)c(=O)c3ccccc23)cc1
→ 0.992	-0.153
- O=C(O)c1cc(-c2ccc(Br)cc2)nc2ccc(Cl)cc12
→ 0.982	-0.512
- Cc1ccc(CNC(=O)c2oc3ccc(S(=O)(=O)N4CCC5(CC4)OCCO5)cc3c2C)cc1
→ 0.899	-1.02
- CCn1c(C2CC(=O)N(c3cccc(Cl)c3C)C2)nc2ccccc21 (stereo not given)
→ 0.877	-2.37
- Cc1ccc(C(=O)Nc2nccs2)cc1S(=O)(=O)N1CCCCC1
→ 0.738	-2.96
- COc1ccc(CCNC(=O)c2ccc3c(c2)N(Cc2ccc(F)cc2)CCS3)cc1OC
→ 0.766	-0.31
- CCOc1ccc(S(=O)(=O)Nc2ccc3oc4c(c3c2)CCCC4)cc1
→ 0.906	-2.61
- CCc1ccc(CNC(=O)C2CC(=O)N(CCc3ccc(C)cc3)C2)cc1 (stereo not given)
→ 1.04	1.09
- CCC(C(=O)Nc1ccccc1F)n1c(SCc2cccc(C)c2)nc2ccncc21 (stereo not given)
→ 0.971	-0.414
- O=C(NCc1ccccc1)C1C2C=CC3(CN(Cc4ccccc4Cl)C(=O)C13)O2 (stereo not given)
→ 0.955	-2.13
- COC(=O)c1c[nH]n2c(NC3CCCC3)c(-c3cccc(Br)c3)nc12
→ 0.73	-0.303
- CC1CCN(CCCNC(=O)C2CC(=O)N(CCc3ccccc3)C2)CC1 (stereo not given)
→ 1.06	1.51
- CCOc1ccc2c(c1)c(=O)c(S(=O)(=O)c1ccccc1)cn2CC(=O)Nc1cccc(Cl)c1
→ 0.89	-3.59
- COc1ccc(NC(=O)Cn2cc(S(=O)(=O)c3ccccc3)c(=O)c3cc(C)ccc32)cc1Cl
→ 0.91	-1.26
- Cc1nc2ncnn2c(C)c1CCC(=O)Nc1ccc(Br)cc1
→ 1.03	0.529
- O=C(Nc1ccccc1F)c1cnc2sccn2c1=O
→ 0.874	-1.49
- Cc1oc(-c2cccc(F)c2)nc1CSCC(=O)NC1CCCCC1
→ 1.22	4.1
- Cc1ccc(NC(=O)Cc2nn(C)c(=O)c3ccccc23)cc1
→ 1.01	0.245
- CCOC(=O)c1c(NC(=O)CN2CC(C)OC(C)C2)sc2c1CCC(C)C2 (stereo not given)
→ 0.968	-0.745
- CC(=O)N1CCc2cc(Br)cc(S(=O)(=O)NCCCN(C)C)c21
→ 1.03	0.623
- CCc1ccc2c(c1)c(=O)c(S(=O)(=O)c1ccc(C)cc1)cn2CC(=O)Nc1ccccc1
→ 0.962	-1.38
- COc1ccc(OC)c2[nH]c(=O)c(CCNC(=O)c3ccc(C(F)(F)F)cc3)cc12
→ 1.08	3.49
- Cc1ccc(CNC(=O)c2c[nH]c3ccc(S(=O)(=O)Nc4ccc(C)cc4C)cc3c2=O)cc1
→ 0.841	-0.69
- COC(=O)CNc1nc(-c2ccccc2F)nc2ccccc12
→ 1.01	0.206
- COc1ccc(CC(=O)Nc2ccc(-c3noc(-c4ccccc4OC)n3)cc2)cc1
→ 1.02	0.158
- CCCN1CCN(CCCNC(=O)Cn2nc(Cc3cccnc3)c3ccccc3c2=O)CC1
→ 1.19	2.95
- COc1ccc(Nc2cc(C(=O)NCCCN(C)Cc3ccccc3)c3ccccc3n2)cc1
→ 0.851	-2.95
- Cc1ccc(Cl)cc1NC(=O)C1CCCN1S(=O)(=O)c1cccc2cccnc12 (stereo not given)
→ 0.982	-0.6
- COc1cc2ccccc2cc1C(=O)Nc1ccc2oc(-c3cccc(F)c3)nc2c1
→ 1.22	2.32
- CNC(=O)CCCN1C(=O)CSc2ncccc21
→ 1.15	2.15
- COc1ccccc1NC(=O)CC1Sc2ccc(C(F)(F)F)cc2NC1=O (stereo not given)
→ 1.01	0.445
- COc1cccc(NC2c3ccccc3C(=O)N2c2ccccn2)c1 (stereo not given)
→ 0.96	-1.31

Other results follow:
Values run as follows: CBX7 inh	CBX7 inh z-score
- Cc1ccc(C)c(Cc2c(C)nc3c(C(=O)N4CCN(c5cccc(C)c5C)CC4)cnn3c2C)c1
→ 0.908	-3.57
- CCc1ccccc1N(C)C(=O)Cc1c(C(=O)O)[nH]c2ccc(Cl)cc12
→ 1.13	1.29
- O=C(CC1Oc2ccccc2NC1=O)NCCCN1CCN(c2ccccc2F)CC1 (stereo not given)
→ 1.23	1.36
- Cc1ccc(-c2nn(C)c(=O)c3ccccc23)cc1CNC(=O)c1ccccc1Cl
→ 1	0.114
- CC(C)=C1C2C=CC1C1C(=O)N(c3ccc(C)c(C)c3)C(=O)C21 (stereo not given)
→ 1.06	1.45
- O=C(CCn1nc(-c2ccccc2)ccc1=O)NCCCN1CCOCC1
→ 1.03	0.802
- COc1ccccc1NC(=O)c1ccc(CNc2c(N3CCC(C)CC3)c(=O)c2=O)cc1
→ 1.01	0.42
- COc1ccc(CNc2ccc3c(c2)ncn3C2CCCCC2)cc1
→ 0.633	-4.35
- COc1ccccc1Nc1ncnc2sc(C)c(S(=O)(=O)N3CCOCC3)c12
→ 0.984	-0.408
- Cc1cc(N2CC(C)CC(C)C2)nc2ccc(NC(=O)CCC(=O)N3CCCC(C)C3)cc12 (stereo not given)
→ 0.986	-0.621

Shown field by field: part of the list above
Cc1ccc(C)c(Cc2c(C)nc3c(C(=O)N4CCN(c5cccc(C)c5C)CC4)cnn3c2C)c1
  CBX7 inh = 0.908
  CBX7 inh z-score = -3.57

CCc1ccccc1N(C)C(=O)Cc1c(C(=O)O)[nH]c2ccc(Cl)cc12
  CBX7 inh = 1.13
  CBX7 inh z-score = 1.29

More structures
Values run as follows: CBX7 inh	CBX7 inh z-score
- Cc1[nH]c2ccc(OCc3ccccc3)cc2c1CCNC(=O)NC1CCCCC1
→ 0.961	-0.848
- O=C1CN(C(=O)c2cc(Br)ccc2Cl)C(c2ccc(F)cc2)c2cc(F)ccc2N1 (stereo not given)
→ 0.7	-5.46
- CC1(C)CC(=O)N(CC(=O)N2CCN(c3ncccn3)CC2)c2ccccc2S1(=O)=O
→ 0.985	-0.453
- CCN(c1cccc(C)c1)c1ncnc2c1cnn2-c1ccc(C)cc1C
→ 0.976	-0.598
- CCOC(=O)N1CCC(NC(=O)c2cccc3c2C(=O)N(Cc2cccnc2)C3)CC1
→ 1.1	1.18
- COc1ccc(NC(=O)c2nn3c(C(F)(F)F)cc(-c4cccs4)nc3c2Cl)cc1OC
→ 1.01	0.347
- COc1cc(-c2ncnn2-c2cccc(Cl)c2C)ccc1OCc1ccccc1
→ 1.05	0.552
- COc1ccc(-n2nnc3c(=O)n(CC(=O)Nc4ccccc4C(F)(F)F)cnc32)cc1
→ 0.921	-1.51
- c1ccc(-n2c(SCc3ccncc3)nnc2-c2ccco2)cc1
→ 0.969	-0.145
- C=C(C)Cn1c(CCCNC(=O)c2ccc(F)cc2)nc2ccccc21
→ 1.14	2.56
- CCCC(O)(c1ccc(F)cc1)C(CN1CCCCC1)c1ccccc1 (stereo not given)
→ 0.888	-2.42
- COc1cc2c(=O)c(S(=O)(=O)c3ccccc3)cn(Cc3ccccc3Cl)c2cc1OC
→ 0.891	-2.08
- O=C(Nc1ccc(Br)cc1F)c1cnn(-c2ccccc2)c1C1CCNCC1
→ 1.11	1.45
- Cc1ccc(C)c(-c2csc(NC(=O)c3ccc(C#N)cc3)n2)c1
→ 1.03	0.86
- CCOc1ccc2nc(N3CCCC(C(=O)N4CCN(c5ccccc5)CC4)C3)sc2c1 (stereo not given)
→ 0.757	-4.55
- O=C(CN1CCN(Cc2ccccc2Cl)C1=O)N1CCC2(CC1)OCCO2
→ 0.987	-0.228
- CCc1ccc2c(c1)c(=O)c(S(=O)(=O)c1ccc(C)cc1)cn2CC(=O)Nc1ccc(C)cc1
→ 0.838	-2.33
- COc1ccc(-n2nc3c(c2NC(=O)c2cc(Cl)cc(Cl)c2)CSC3)cc1
→ 0.945	-1.37
- COc1cccc(C2(c3cccc(OC)c3)CC2C(=O)Nc2cccc(C(F)(F)F)c2)c1 (stereo not given)
→ 1.14	0.649
- O=C(Nc1ccc(-c2nc3cc(Cl)ccc3o2)cc1)c1cc2ccccc2o1
→ 0.979	-0.523

2 compounds picked at random from the list so far:
Values run as follows: CBX7 inh	CBX7 inh z-score
- O=C(Nc1ccc(Br)cc1F)c1cnn(-c2ccccc2)c1C1CCNCC1
→ 1.11	1.45
- CCCC(O)(c1ccc(F)cc1)C(CN1CCCCC1)c1ccccc1 (stereo not given)
→ 0.888	-2.42

Additional compounds.
Values run as follows: CBX7 inh	CBX7 inh z-score
- COc1ccc(OC)c2[nH]c(=O)c(CCNC(=O)CC(C)(C)C)cc12
→ 1.04	1.61
- Cn1nc(CC(=O)Nc2ccc3c(c2)OCO3)c2ccccc2c1=O
→ 0.89	-1.58
- CCc1ccc(-c2csc(NC(=O)c3ccc(S(=O)(=O)N4CCCCC4)cc3)n2)cc1
→ 0.931	-1.47
- Cc1c(Cl)cccc1NC1c2ccccc2C(=O)N1c1cccnc1 (stereo not given)
→ 0.917	-2.79
- CCN(CC)CCNC(=O)c1c(CSc2ccccc2)n(C)c2cc(Br)c(OC)cc12
→ 0.92	-2.14
- CC(NC(=O)CCc1cn(C)c2ccccc12)c1ccccc1 (stereo not given)
→ 0.997	-0.137
- CC1CCC(NC(=O)c2ccc3c(c2)NC(=O)CS3)CC1 (stereo not given)
→ 1.08	0.53
- Cc1ccc(C)c(Cn2c(=O)n(CCCC(=O)NCc3ccccc3)c(=O)c3sccc32)c1
→ 1	-0.00961
- c1ccc(Cc2ccc(Oc3ncnc4sc5c(c34)CCCC5)cc2)cc1
→ 1.29	0.587
- O=C(c1ccc2c(=O)n3c(nc2c1)CCCCC3)N1CCCCCC1
→ 1.06	2.07
- Cn1nc(-c2ccc(N3CCCCC3)c(NC(=O)COc3ccccc3)c2)c2ccccc2c1=O
→ 0.706	-1.27
- Cc1ccccc1-c1nc(CN2CCC(C(=O)NCCCN(C)C3CCCCC3)CC2)c(C)o1
→ 1.68	5.78
- O=C1CC(c2ccccc2C(F)(F)F)c2ccc3ccccc3c2N1 (stereo not given)
→ 0.889	-2.51
- Cc1onc(-c2ccccc2)c1C(=O)Nc1cccc(OC2CCCC2)c1
→ 0.921&1	-1.98&0.00286
- Cc1ccc(NC2c3ccccc3C(=O)N2c2cccnc2)cc1Cl (stereo not given)
→ 0.861	-1.87
- Cc1cc(N2CCOCC2)nc2ccc(NC(=O)CCC(=O)N3CCCC(C)C3)cc12 (stereo not given)
→ 0.968	-0.0421
- Clc1ccccc1OCc1nc(-c2ccccn2)no1
→ 1.17	1.51
- CCOc1ccccc1Nc1nc(-c2sc(C)nc2C)cs1
→ 0.899	-1.3
- Cc1nc2sccn2c1-c1csc(Nc2ccc(C(=O)O)cc2)n1
→ 0.867	-2.29
- CCN1CCN(c2ccc3nnc(CCC(=O)Nc4ccc(C)cc4)n3n2)CC1
→ 1.03	0.489
- Clc1ccc(-c2nc3ncccn3c2Nc2ccc3c(c2)OCCO3)cc1
→ 0.854	-0.146
- CC(=O)N1CCc2cc(S(=O)(=O)NCCC(=O)Nc3ccc(C)c(C)c3)ccc21
→ 0.938	-0.948
- O=C(CCc1ccccc1)Nc1nnc(Cc2ccccc2F)s1
→ 0.979	-0.264

Entries of single compounds, looked up by structure. Values in the order: CBX7 inh | CBX7 inh z-score
CCN(c1cccc(C)c1)c1ncnc2c1cnn2-c1ccc(C)cc1C across the screens: 0.976 | -0.598
CCc1ccccc1N(C)C(=O)Cc1c(C(=O)O)[nH]c2ccc(Cl)cc12 across the screens: 1.13 | 1.29
COc1cc(-c2ncnn2-c2cccc(Cl)c2C)ccc1OCc1ccccc1 across the screens: 1.05 | 0.552
COc1ccccc1NC(=O)CC1Sc2ccc(C(F)(F)F)cc2NC1=O (stereo not given) across the screens: 1.01 | 0.445
CCOc1ccccc1Nc1nc(-c2sc(C)nc2C)cs1 across the screens: 0.899 | -1.3
